RE007 growth inh = less growth of the S. pombe RE007 Vpr strain | S. pombe RE007 Vpr strain, BacTiter-Glo ATP luminescence, 24 h; control for the full effect not named in the record | hit rate 0.21% among 360,000 | Potency, µM (titrated, usually from 92.2 µM), without a hit: at the top dose activity change, negative = less growth; active = well fitted falling curve with a large enough effect; inconclusive = small, poorly fitted or top-dose-only effect; inactive = no such curve, though single readings can be large or run the other way;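 note: % is set by controls: 0 for no effect and ±100 for the full control effect; nearly all actives have a fitted effect of over 50% in size; the assay follows cell death caused by Vpr and the record does not say whether a fall means rescue or toxicity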
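Fission yeast RE007 carrying one integrated HIV-1 vpr copy, seeded at OD 0.01 in PMG+AL medium with 23 nL pinned compound. Grown 24 h at 30 degrees; viability read by BacTiter-Glo luminescence after 5 min.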
SARS PLP yeast = inhibitors of SARS-CoV papain-like protease in yeast; S. cerevisiae expressing SARS-CoV PLpro, growth rescue; control for the full effect not named in the record; Potency, µM (series often up to 32.9 µM), for inactives: at the top dose activity, positive = growth rescue; hit rate 0.19% among 330,000; note: 0% is about no effect; nearly all actives have a fitted effect of over 55% in size; growth read by luminescence after 48 h
Lassa entry inh = blocks Lassa virus binding to or entry into cells | Lassa virus pseudotype entry inhibition, cell reporter; control for the full effect not named in the record | hit rate 1.2% among 300,000 | AID 540256 | Potency, µM (series often up to 37.9 µM), without a hit: top-dose activity change, negative = inhibition, actives largely listed as inhibitors; active means well fitted inhibition curve with a large enough effect; inconclusive means small, poorly fitted or top-dose-only effect, or effect the other way; inactive means flat fitted curve, though single readings scatter; tested in HEK293 cells; note: % is set by controls: 0 for no effect and ±100 for the full control effect; nearly all actives have a fitted effect of over 50% in size; luciferase read-out
2A StopGo = FMDV 2A StopGo reporter, luciferase signal | hit rate 1.2% among 410,000 | human cells with a luciferase reporter of 2A StopGo recoding; control for the full effect not named in the record | AID 1159524 | Potency, µM (titrated, usually from 57.9 µM), for the others: at the top dose signal change, negative = less light; active = well fitted falling curve with a large enough effect; inconclusive = small, poorly fitted or top-dose-only effect; inactive = no such curve, though single readings can be large or run the other way; tested in HEK293T cells; note: % is set by controls: 0 for no effect and ±100 for the full control effect; nearly all actives have a fitted effect of over 45% in size; luciferase light after 4 h
Cruzain inh noDet = cruzain (T. cruzi) inhibition without detergent; purified cruzain, Z-FR-AMC fluorescence, no detergent; Potency, µM, for inactives: max response, negative = inhibition, hits mostly inhibitors; hit rate 2.3% among 200,000; AID 1476; active = well fitted curve in the direction sought with a large enough effect; inconclusive = small, poorly fitted or top-dose-only effect, or another doubt; inactive = no such curve, though single readings can be large; an effect the other way counts as inactive or inconclusive;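 note: plate controls were enzyme without inhibitor for no effect and buffer without enzyme for full effect; nearly all actives have a fitted effect of over 40% in size; top concentration of the series not given in the record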
Target sequence (P25779 123-467 limits assumed): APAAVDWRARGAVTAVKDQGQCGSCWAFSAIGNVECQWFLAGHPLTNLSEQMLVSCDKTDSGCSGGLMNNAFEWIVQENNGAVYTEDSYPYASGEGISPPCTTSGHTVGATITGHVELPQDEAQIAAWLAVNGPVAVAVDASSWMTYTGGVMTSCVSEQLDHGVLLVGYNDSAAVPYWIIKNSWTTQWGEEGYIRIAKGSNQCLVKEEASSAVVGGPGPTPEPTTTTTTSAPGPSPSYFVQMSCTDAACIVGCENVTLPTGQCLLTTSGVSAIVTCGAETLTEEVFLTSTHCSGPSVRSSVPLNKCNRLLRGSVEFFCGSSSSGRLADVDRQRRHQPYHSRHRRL
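Purified cruzain at 1.5 nM, pre-incubated 15 min with compound at room temperature in 100 mM sodium acetate pH 5.5, 5 mM DTT, 0.00005% Triton X-100. Reaction started with 2 uM Z-FR-AMC; AMC fluorescence increase over 60 s gives rate.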
MARV entry inh = blocks Marburg virus binding to or entry into cells; Marburg virus pseudotyped entry inhibition, cell reporter; control for the full effect not named in the record; about a third of the inactives were read at about 46 µM; hit rate 1.8% among 300,000; AID 540276; Potency, µM (highest dose often 37.8 µM), for inactives: at the top dose activity change, negative = inhibition, usual class: inhibitors; active = well fitted inhibition curve with a large enough effect; inconclusive = small, poorly fitted or top-dose-only effect, or effect the other way; inactive = flat fitted curve, though single readings scatter; tested in HEK293 cells; about a fifth of its hits are not listed in these tables; note: % is set by controls: 0 for no effect and ±100 for the full control effect; luciferase read-out
Cruzain inh Det = inhibitors of Trypanosoma cruzi cruzain with detergent; Potency, µM, for the others: max response, negative = inhibition, most hits filed as inhibitors; hit rate 0.43% among 200,000; purified cruzain, Z-FR-AMC fluorescence, 0.01% Triton; AID 1478; P25779; active = well fitted curve in the direction sought with a large enough effect; inconclusive = small, poorly fitted or top-dose-only effect, or another doubt; inactive = no such curve, though single readings can be large; an effect the other way counts as inactive or inconclusive;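 note: plate controls were neutral wells for no effect and buffer without enzyme for full effect; nearly all actives have a fitted effect of over 40% in size; top concentration of the series not given in the record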
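Purified cruzain (1.5 nM final) was preincubated with compounds for 15 min at room temperature in 100 mM sodium acetate pH 5.5, 5 mM DTT, 0.01% Triton X-100. Reaction started with 2 uM Z-FR-AMC; AMC fluorescence change over 60 s gave activity.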
NS1 inh = influenza NS1 inhibition; S. cerevisiae slowed by influenza A NS1, growth recovery by OD600; Potency, µM (top dose mostly 46.1 µM), without a hit: top-dose activity, positive = more growth; hit rate 0.4% among 270,000; AID 2326; note: actives are rising curves; nearly all actives have a fitted effect of over 50% in size
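Recovery from NS1-induced slow growth read by OD600 in budding yeast switched to galactose assay medium (pH 6.0, -URA) at 1:100 dilution. Compound 23 nl per well; the matching strain lacking NS1 serves as control.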
Numbers without * were called inactive; u = inconclusive; x = no result given; & = joins results of further samples; [ ] = remark or other dose. Unless noted, calls come from the whole dose curve; as a rule, active means well fitted rising curve with a large enough effect; inconclusive means small, poorly fitted or top-dose-only effect; inactive means no such curve, though single readings can be large or run the other way. Potency is the fitted concentration of half-maximal effect.

SMILES	RE007 growth inh	SARS PLP yeast	Lassa entry inh	2A StopGo	Cruzain inh noDet	MARV entry inh	Cruzain inh Det	NS1 inh
O=C(Nc1ccc(N2CCOCC2)c(S(=O)(=O)Nc2cc(Cl)ccc2Cl)c1)c1cccnc1	11%	-2%	x	96%[activator]	x	x	x	12%
CN(c1ccccc1)S(=O)(=O)c1cccc(NC(=O)CSc2ncn[nH]2)c1	-12%	-2%	u	35µM*	3%	u	-3.4%	-6%
Cc1cccc(N(C(=O)CCC(=O)Nc2cccnc2)C(C(=O)NC2CCCC2)c2ccncc2)c1 (stereo not given)	25%	14%	19%	-1%	15%	0%	4.4%	-3%
CCN1CCN(C(c2ccc(OC)cc2)c2nnnn2Cc2ccc3c(c2)OCO3)CC1 (stereo not given)	5%	0%	1%	-5%	x	u	x	-1%
O=C(CSc1nc2c([nH]c3ccccc32)c(=O)n1-c1ccccc1F)Nc1cccc(C(F)(F)F)c1	x	x	u	u	u	x	0.2%	x
CCC(=O)N(CC)Cc1cc(=O)[nH]c2ccccc12	5%	1%	u	6%	1%	-8%	-5.9%	7%
CC(Sc1nc2ccccc2[nH]1)C(=O)Nc1ccc2c(c1)OCCO2 (stereo not given)	-7%	0%	11%	-9%	3%	10%[46.1 µM]	-4.1%	-2%
COc1ccc(/C(O)=C2/C(=O)C(=O)N(CCCN3CCOCC3)C2c2ccc(C(C)C)cc2)cc1 (stereo not given)	9%	u	x	-2%	x	x	x	1%
CCOc1ccc(NC(=O)CN2C(=O)CSC(C)C2=O)cc1 (stereo not given)	10%	0%	-23%	0%	x	27%	x	x
CCN(CCn1cccn1)C(=O)CCc1nnc(C2CCCCC2)o1	-4%	1%	x	9%	x	x	x	1%
Cc1ccccc1Cn1cnc2ccccc2c1=O	9%	-3%	-6%	-8%	1%	-1%	0.5%	-6%
O=C(O)C1OC(C(=O)O)C2C1C(F)(F)C2(F)F (stereo not given)	-4%	-5%	-22%	x	0%	17%	1.2%	5%
CN(C)S(=O)(=O)N(CC(=O)N1CCN(Cc2ccccc2)CC1)c1ccccc1	4%	-2%	x	-21%	x	x	x	-4%
Cc1ccc(S(=O)(=O)c2c(N)n(CCC(C)C)c3nc4ccccc4nc23)cc1	-10%	1%	u	-27%	1%	u	-3.8%	7%
Cc1cc(C)c(NC(=O)c2cc(S(=O)(=O)N3CCC4(CC3)OCCO4)ccc2F)c(C)c1	x	x	10%[46.1 µM]	-11%	u	x	-0.1%	x
Cc1ccc(C(C)C)c(OC/C(O)=C(\C#N)c2nc3ccccc3[nH]2)c1	8%	0%	-26%	-27%	x	-20%	x	-4%
Cc1nc2c3ccccc3n(CC(=O)c3ccc(F)cc3)c(=O)n2n1	24%	2%	x	-19%	-5%	x	-1.4%	1%
COCCCN1C(=O)c2ccc(C(=O)OCC(=O)N(C)c3ccccc3)cc2C1=O	-13%	-2%	1%[46.1 µM]	0%	x	u	x	-3%
CCN(C(=O)Cn1cc(C(C)=O)c2ccccc21)c1ccccc1	-16%	0%	x	-30%	x	x	x	-3%
CCOC(=O)C1CCN(c2c(NCc3ccc(N(C)C)cc3)c(=O)c2=O)CC1	1%	1%	x	-13%	x	x	x	4%
C/C(=N\NC(=O)c1ccc(NS(=O)(=O)c2cccs2)cc1)c1ccccn1	6%	-1%	u	11%	x	u	x	u
COc1ccc(/C=N/NC(=O)c2cccnc2)c2ccccc12	6%	-3%	u	-5%	x	4%[46.1 µM]	x	-7%
O=c1/c(=C/c2ccco2)sc2n1CN(c1ccccc1)CN=2	7%	6%	-4%	27%	-3%	28%	-7.2%	6%
Cc1cc(-c2ccccc2)nc(SCC(=O)c2cccc([N+](=O)[O-])c2)n1	17%	1%	u	u	3%	-24%	4.5%	21%
CCc1ccccc1Nc1nn2c(=O)c3ccc(C(=O)NCCC4=CCCCC4)cc3nc2s1	x	x	5%[46.1 µM]	u	25µM*	x	-4.2%	x
CCn1c(SCC(=O)NCc2ccccc2)nc2c(c1=O)SC(C)C2 (stereo not given)	1%	-11%	x	-11%	-5%	x	-0.5%	-47%
CCN(CC)C(=O)c1sc(NC(=O)c2ccc3c(c2)OCO3)c(C#N)c1C	2%	9%	u	57%[activator]	3%	2%	-0.7%	1%
O=C1C(=O)N(C2CCN(C(=O)c3cccc(Cl)c3)CC2)CCN1Cc1ccc(F)cc1	x	x	28%[46.1 µM]	-18%	-7%	x	0.4%	x
CN(C)S(=O)(=O)N1CCC(Oc2cccc(C(=O)N3CCCCCCC3)c2)CC1	13%	-1%	11µM*	u	x	-1%	x	4%
CCN1CCC(N(C)C2CCCCC2)CC1	-4%	-3%	u	-8%	x	u	x	-1%
CCOc1ccc(NC(=O)COc2ccc(C(=O)NCc3cccc(OC)c3)cc2OC)cc1	-4%	4%	9%	-18%	x	4%	x	x
CN(C)S(=O)(=O)N1CCC(CCCC2CCN(S(=O)(=O)N(C)C)CC2)CC1	6%	x	-11%	-3%	14%	17%	5.3%	-1%
CCOC(=O)CSc1nc2ccccc2c(=O)n1CC	1%	-5%	1%	-4%	1%	1%	-0.5%	1%
CCN1C(c2ccccc2)=C(c2ccccc2)S/C1=C\C=C1/SC(=S)N(C)C1=O	-3%	x	-28%	u	x	u	x	x
CCOc1ccc(CCNC(=O)Cn2cccc2C(=O)c2ccccc2)cc1OCC	4%	u	-20%	16%	21%	u	-7.1%	u
O=C(NCCc1nc2ccccc2[nH]1)Nc1ccccc1	16%	7%	-4%	33%[activator]	-3%	14%	3.0%	0%
COc1ccc(Cn2c(=O)n(Cc3ccco3)c(=O)c3oc4ccccc4c32)cc1	x	x	2%[46.1 µM]	-18%	16%	x	-1.5%	x
COc1ccc(C(=O)c2coc3ccc(OC(C)=O)cc23)cc1	-2%	-6%	u	-45%	x	u	x	-3%
Cc1ccc(S(=O)(=O)N2CCC(=O)N(C(CO)Cc3ccccc3)CC2)cc1 (stereo not given)	0%	6%	-10%	-8%	13%	8%	4.5%	-4%
O=C(/C=C/c1ccccc1[N+](=O)[O-])NCc1ccncc1	-16%	1%	x	-8%	x	x	x	9%
COc1ccc(OC)c(S(=O)(=O)N2CCNCC2)c1	-10%	1%	x	-19%	x	x	x	12%
CC1CCCCC1NC(=O)c1ccc(N2CCCC2=O)cc1 (stereo not given)	9%	3%	-1%	49%[activator]	-2%	12%	-1.0%	6%
CCN(c1ccccc1)S(=O)(=O)c1ccc(NC(=O)c2cc(=O)c3ccc(C)c(C)c3o2)cc1	x	x	15%[46.1 µM]	-17%	-13%	19%[46.1 µM]	-0.1%	x
COc1ccc(CC(=O)NC2CCCCCC2)c(OC)c1	6%	4%	-22%	7%	x	-7%[46.1 µM]	x	3%
CN(C)S(=O)(=O)c1cccc(NC(=O)COC(=O)C2(c3ccccc3F)CCCC2)c1	2%	2%	4.1µM*	u	8%	u	-4.1%	1%
CC1CCN(CC(=O)Nc2ccc(S(=O)(=O)NC3CC3)cc2)CC1	5%	-4%	x	-2%	x	x	x	u
CCN(CC)CCNC(Cc1ccccc1)c1cccc(OC)c1 (stereo not given)	-1%	x	u	-14%	x	x	x	x
COC(=O)C(C)Sc1nc2c(cnn2-c2ccc(F)cc2)c(=O)[nH]1 (stereo not given)	15%	0%	21%[46.1 µM]	-13%&-26%	9%	u	-0.3%	1%
O=C(O)c1ccnc(SCC(=O)c2ccccc2)c1	9%	18%	-20%	-8%	-2%	-9%	-2.4%	11%
O=C(Nc1ccc(NC(=O)c2cccc([N+](=O)[O-])c2)cc1)c1cccc([N+](=O)[O-])c1	-16%	9%	x	46%[activator]	x	x	x	-33%
O=C(COC(=O)CNS(=O)(=O)c1ccc2ccccc2c1)Nc1ccc2c(c1)OCO2	4%	8%	2%	28%	u	12%	u	-4%
O=C(NCCCN1CCOCC1)c1ccc(S(=O)(=O)Nc2ccccc2F)cc1	22%	3%	u	-2%	x	u	x	x
COc1ccc(/C=C2/C(=O)OCc3cc(OC)c(OC)cc32)c(OC)c1	8%	u	u	4%	2%	u	-7.8%	-3%
Cc1ccc(S(=O)(=O)NCC(=O)OCC(=O)N2CCN(C(=O)c3ccco3)CC2)cc1C	-1%	-4%	-5%	-13%	x	-9%	x	x
COc1cc(C(=S)N2CCOCC2)ccc1OS(=O)(=O)c1ccc(NC(C)=O)cc1	-5%	9%	u	13µM*	6%	u	-2.5%	-1%
O=C(O)c1cccc(N=NN2CCCCCC2)c1	6%	u	u	-84%	2%	u	-3.0%	24%
S=C(NCc1ccc(Cl)cc1Cl)NC1CCCCC1	u	-92%	8.9µM*	-6%	0%	u	-4.3%	-64%
CC(NC(=S)Nc1ccccc1)C1COc2ccccc2O1 (stereo not given)	8%	10µM*	-2%	34%[activator]	-5%	-12%[46.1 µM]	-4.6%	-15%
COC(=O)c1cc(NC(=O)CC2C(=O)NCCN2C(=O)c2ccc(F)cc2)cc(C(=O)OC)c1 (stereo not given)	8%	u	2%	x	9%	0%	5.4%	-1%
C/C(N)=C(/C#N)C(=O)CSc1ncnc2ccccc12	11%	-1%	u	0%	7%	u	-0.2%	-9%
(next part)
SMILES	RE007 growth inh	SARS PLP yeast	Lassa entry inh	2A StopGo	Cruzain inh noDet	MARV entry inh	Cruzain inh Det	NS1 inh
C=C(C)CSC1=C(C#N)C(c2ccccc2)CC(=O)N1 (stereo not given)	-14%	x	u	-1%	x	18%	x	x
Cc1cccc(-c2noc(CCCC(=O)Nc3cccnc3)n2)c1	17%	-2%	-8%	-24%	8%	-29%	4.9%	-15%
Cc1cc(NC(=O)c2cccs2)cc(-c2nc3cc(Cl)ccc3o2)c1O	x	x	1%[46.1 µM]	-19%	-9%	-10%[46.1 µM]	2.0%	x
O=C(O)c1ccc(O)c(O)c1	0%	0%	x	-24%	x	x	x	-3%

Compound activity: PubChem, National Center for Advancing Translational Sciences (NCATS)

No enrichment for hits; overall some 4.7% were active at least once.
